A1 inh = inhibitors of the anti-apoptotic protein A1, read as caspase activation; 330,000 tested, 0.066% active; MEF A1-2A-BIM cells, Caspase-Glo 3/7 luminescence, 3 h; percent of clofoctol response, vehicle zero; caspase activation, % (no concentration beside the values);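 active = over half of replicate activation scores above 10%, or exactly half above 10 with the replicate mean above 10; inconclusive = replicate mean below 10 yet half the replicates above 10; inactive = over half of replicates below 10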;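 also: wells of about 30 µL received 50 nL stock; many hits fall short of the cut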
Beta cell apopt = beta cell apoptosis inhibition | AID 435005 | 300,000 tested, 0.8% active | protection from apoptosis, % (no concentration beside the values) | INS-1E cytokine-induced death, ATP luminescence, 48 h; percent of positive-control rescue, neutral wells zero;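 active = all replicates at 75% or more, or half of them and the mean; inconclusive = half reach 75% but not the mean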;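 also: 0% = cytokine-treated negative control wells and 100% = positive control rescue; higher means more ATP so stronger rescue from cytokine killing; wells of about 40 µL received 100 nL stock; the first replicate is given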
T cruzi repl = blocks replication of Trypanosoma cruzi | inhibition, % (concentration not given with the values) | 300,000 tested, 1.4% active | T. cruzi beta-gal in NIH3T3, luminescence, 90 h;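 active = mean inhibition across valid replicates above about 55%, limit read from the data; inconclusive = mean below that limit but half or more replicates reach it; inactive = mean below it, under half of replicates reach it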;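 also: signal also drops with host cell toxicity which is not excluded here; 0% = plate median of DMSO wells and 100% = zero luminescence signal; higher percent means less beta-gal luminescence so fewer parasites; stock transfer was 50 nL into about 50 µL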
Calb FLC = C. albicans growth modulation with fluconazole; C. albicans CaCi-2 (fluconazole-resistant clinical isolate) + fluconazole, Alamar Blue growth, 48 h; growth inhibition, % (no concentration beside the values); 300,000 tested, 0.57% active;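 active = most replicates above 75%; inconclusive = exactly half above 75%; inactive = most below 75%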;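 also: all wells also contain fluconazole at 8 µg/ml as a sub-toxic cotreatment; 0% = median of DMSO wells and 100% = median of geldanamycin control wells; wells of about 8 µL received 7.5 nL stock; the first replicate is given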
RanGTP-Impb inh = inhibitors of RanGTP-importin-beta interaction, primary screen, biochemical, FRET, CFP-Ran, YFP-importin-beta, homogeneous. inhibition, % (test concentration not listed). cell-free CFP-Ran/YFP-importin-beta FRET ratio. AID 2216. 300,000 tested, 1.1% active;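 active = most replicates above 15%; inconclusive = exactly half above 15%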;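 also: 0% = DMSO wells and 100% = Ran loaded with GDP instead of GTP; wells of about 40 µL received 100 nL stock; the first replicate is given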
B2AR ag = human beta-2 adrenergic receptor agonism by FAP | P07550 | Am2.2-beta2AR cells, FAP receptor internalization, flow cytometry; reference of the scale not given here | 340,000 tested, 0.43% active | response, % (concentration not given with the values);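 active = response above a set limit, near 3 SD of response in nonfluorescent compounds, cut at about 42% in these data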;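 also: stock transfer was 100 nL into about 11 µL; a reference agonist was the positive control; negative values mostly stem from fluorescent compounds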
Target sequence (P07550 whole entry, looked up): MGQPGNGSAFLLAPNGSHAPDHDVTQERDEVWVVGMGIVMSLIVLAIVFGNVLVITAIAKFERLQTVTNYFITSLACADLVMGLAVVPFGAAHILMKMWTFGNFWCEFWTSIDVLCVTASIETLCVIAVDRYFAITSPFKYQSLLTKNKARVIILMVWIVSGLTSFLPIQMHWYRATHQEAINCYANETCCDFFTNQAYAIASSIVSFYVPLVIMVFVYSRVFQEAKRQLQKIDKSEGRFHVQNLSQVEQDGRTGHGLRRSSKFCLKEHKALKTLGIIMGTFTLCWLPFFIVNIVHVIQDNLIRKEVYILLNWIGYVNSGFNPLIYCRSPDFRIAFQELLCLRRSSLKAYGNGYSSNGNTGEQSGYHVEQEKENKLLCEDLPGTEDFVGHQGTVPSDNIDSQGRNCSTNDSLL
UCH37 DUB inh = human UCH37 deubiquitinating enzyme inhibition. purified proteasome/UCH37, Ub-AMC cleavage fluorescence. inhibition, % (concentration not given with the values). 330,000 tested, 0.33% active;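 active = mean of two replicates above 20%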;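 also: 0% = compound-free wells with enzyme and 100% = wells lacking proteasome; stock transfer was 100 nL into about 20 µL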
Target sequence (Q9Y5K5 whole entry, looked up): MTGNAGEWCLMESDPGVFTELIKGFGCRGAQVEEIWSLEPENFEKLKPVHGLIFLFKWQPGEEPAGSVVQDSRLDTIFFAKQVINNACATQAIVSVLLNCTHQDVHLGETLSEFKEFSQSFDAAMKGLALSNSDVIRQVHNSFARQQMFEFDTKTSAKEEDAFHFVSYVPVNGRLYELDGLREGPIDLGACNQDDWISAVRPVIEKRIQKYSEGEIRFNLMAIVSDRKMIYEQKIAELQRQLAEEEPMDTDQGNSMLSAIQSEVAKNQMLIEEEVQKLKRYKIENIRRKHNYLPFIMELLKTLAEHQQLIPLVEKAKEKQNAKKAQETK
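System: Proteasome-associated human UCH37 deubiquitinase; Input: 0.15 nM proteasome in added enzyme buffer; Also added: Ub-AMC substrate from 1 µM stock; Incubation: 30 min compound-proteasome preincubation then 25 min substrate reaction, room temperature; Detection: fluorescence, ex 355 nm, em 460 nm; Read-out: % inhibition of Ub-AMC cleavage fluorescence; Benchmarks: no-proteasome and no-compound wells.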
LANA-H2A inh = blocks KSHV LANA binding to histone H2A/H2B; Q9QR71; cell-free LANA-H2A/H2B peptide, fluorescence polarization; inhibition, % (no concentration beside the values); 320,000 tested, 0.6% active; AID 2629; in the data active = inhibition mostly above about 10%, no sharp cut-off; inactive = mostly below about 6.7%;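 also: stock transfer was 7.5 nL into about 10 µL; 0% = median of vehicle wells and 100% = median of positive control wells; one replicate is shown; the record names a cut of 25% in any replicate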
An asterisk follows results filed as active; u = inconclusive; x = no result given.

SMILES	A1 inh	Beta cell apopt	T cruzi repl	Calb FLC	RanGTP-Impb inh	B2AR ag	UCH37 DUB inh	LANA-H2A inh
COCC(=O)N1CCCC(C(=O)c2ccc(-c3ccccc3)c(F)c2)C1 (stereo not given)	-0.1	-1	-12	-8	2.2	-7	2.3	-2.2
COc1ccc(N(C(=O)Nc2ccc(Cl)cc2)C2=NCCC2)cc1	0.0	-7	-9	-27	2.4	-2	5.1	1.8
COCCN(C)C(=O)CC1C(=O)NCCN1CC(c1ccccc1)c1ccccc1 (stereo not given)	1.3	-11	-1	-2	-2.4	-4	-2.3	1.0
CC(C)(OC(=O)c1cccs1)c1cc2ccccc2c(=O)o1	-0.2	2	x	x	x	-22	0.6	-0.7
CC(O)Cn1c(=O)c2c(nc(Br)n2Cc2ccccc2)n(C)c1=O (stereo not given)	0.4	2	3	-5	-1.9	-8	5.4	2.4
O=C1[C@@H]2[C@H](C(=O)N1Cc1cccnc1)[C@H]1C=C[C@@H]2C1	0.2	4	-7	26	-0.8	-7	0.8	5.1
Cc1cc2cc(CNC(=O)C3CC3)ccc2n1C	-0.5	-2	-1	-14	5.6	-10	1.8	1.7
Cc1cccc(Nc2nc(N)c([N+](=O)[O-])c(N3CCOCC3)n2)c1	-0.1	8	0	2	-1.3	1	6.9	0.8
O=C(COC(=O)c1ccc(S(=O)(=O)N2CCOCC2)cc1)NCc1cccs1	0.7	2	8	-6	-0.8	3	5.2	1.9
CC1=C(C(=O)Nc2ccccn2)C(c2ccc(Cl)cc2)NC(=S)N1 (stereo not given)	-0.7	x	-3	-20	1.2	-1	-0.6	-4.2
COc1cc(S(=O)(=O)NCCN2CCOCC2)ccc1-n1cnnn1	-1.6	-13	6	-10	5.3	7	3.1	-4.9
CN1C(=O)[C@H](Cc2ccc([N+](=O)[O-])cc2)NC1=S	0.2	-5	6	6	3.3	2	0.3	-2.8
COc1ccc(CC(=O)NNC(=S)Nc2ccccc2)cc1Cl	0.8	-3	-8	7	0.8	-2	1.4	-7.3
COc1ccc(N2CCN(S(=O)(=O)c3cccs3)CC2)cc1	2.1	-9	-6	-3	-3.5	6	2.2	0.9
O=C1N/C(=C/c2ccco2)C(=O)N1Cc1ccccc1F	0.0	-10	-6	-11	-1.9	-10	-2.9	1.7
CS(=O)(=O)N1CCN(c2ccc(NC(=O)CSc3nnc(-c4ccco4)o3)cc2)CC1	0.3	x	-19	-4	-7.6	10	2.5	1.6
Cc1cc(C)c2sc(N(CCCN(C)C)C(=O)c3ccc(S(=O)(=O)N(C)Cc4ccccc4)cc3)nc2c1	-0.3	x	50	2	2.9	31	7.1	-0.5
Cc1ccc(NC(=O)c2c(O)c3ccccc3n(C)c2=O)nc1	0.2	-2	3	-2	1.0	-20	-28	1.1
CC(C)n1cc(C(=O)N2CCCC(N3CCN(c4ccc(F)cc4)CC3)C2)cn1 (stereo not given)	-0.3	0	-8	-11	11	-2	-2.5	-0.8
Cc1cccc(NC(=S)NC2CCSc3ccccc32)c1 (stereo not given)	0.1	-3	7	-10	1.1	5	0.9	-50
COc1cc(S(=O)(=O)NCCCn2ccnc2)ccc1F	0.5	8	-10	5	-3.1	10	2.1	10
O=C(O)c1ccn2c(C(=O)c3ccc(Cl)cc3)c(-c3ccccc3)cc2c1	0.3	x	8	7	-3.1	8	x	0.1
CCOC(=O)c1c(S(=O)(=O)NCC(=O)N2CCN(c3ccccc3)CC2)c(C)n(C)c1C	-2.9	-8	-12	-6	-0.5	-12	1.5	-1.3
Cc1ccc(S(=O)(=O)Nn2c(C)nnc2-n2nc(C)cc2C)cc1	0.2	-2	6	-2	3.1	-10	5.9	-2.7
COC(=O)/C=C1\S/C(=N/N=C/c2ccc(Cl)cc2)NC1=O	-0.3	-6	-4	-2	1.9	6	x	-3.1
CNC(=O)c1c(NC(=O)CS(=O)(=O)c2ccccc2)sc(C)c1C	-0.3	-3	-4	0	4.9	6	1.1	x
Cc1ccc2[nH]c(=O)c(CN(C(=O)c3cccc([N+](=O)[O-])c3)C(C)C)cc2c1	-0.1	-1	-5	2	6.9	-2	4.5	-3.5
Cc1cc(C)nc(NC(=O)/C=C/c2ccccc2Cl)c1	-9.0	7	12	-3	0.6	0	0.9	-0.2
COC(=O)Cc1ccc(OC(=O)c2cccc(S(=O)(=O)N3CCN(C)CC3)c2)cc1	0.0	2	-6	x	-3.4	10	5.3	6.1
CCOC(=O)C(NC(=O)c1ccccc1)=C1CCCCC1	-0.9	1	-11	-3	9.2	-3	3.9	-0.4
CCCc1cc(C(=O)Nc2sc(C)c(CC)c2C#N)no1	-0.3	2	-15	11	u	0	-0.8	-2.6
Fc1ccc(Cn2nnnc2CN2CCN(C3CCCC3)CC2)cc1	0.0	-3	-8	-6	-0.1	3	x	x
CCNCc1cc2cc(C)ccc2[nH]c1=O	-1.9	-5	-8	-15	-8.1	-3	-13	-0.4
CC(/C=N/NC(=O)Cn1nnc(N)n1)=C\c1ccc(C(C)C)cc1	-1.1	x	5	9	-3.8	-10	x	3.0
Cc1ccc(S(=O)(=O)NCCCN2CCCC2)cc1	0.6	0	-3	-3	1.3	-5	1.0	1.5
Cc1ccc(S(=O)(=O)N2CCC(C(=O)OCC(=O)N(C)c3ccccc3)CC2)cc1C	0.2	-3	-2	5	0.6	6	3.7	4.8
CC1=C/C(=N\OC(=O)/C=C/c2ccccc2)C(C)=CC1=O	-0.9	-20	-31	28	6.6	-1	x	-1.9
Cc1cc(NS(=O)(=O)c2ccc(OCCNS(C)(=O)=O)cc2)no1	0.7	-1	-6	-18	1.0	2	0.4	5.5
CC(C)Cn1c(N)c(C(=O)NCc2cccs2)c2nc3ccccc3nc21	-0.8	-4	60*	-3	74*	-6	x	0.2
COC(=O)c1ccc(COc2cccc3c2CCN(Cc2ccccc2)C3=O)o1	0.0	-8	25	-7	-1.8	-4	3.1	-1.0
CC1CCC(C(C)C)C(OP(=O)(c2ccc(N(C)C)cc2)C(O)c2cccnc2)C1 (stereo not given)	0.4	0	13	9	-1.2	x	3.0	-1.0
CCOC(=O)N1CCN(Cc2cn[nH]c2-c2cccc3ccccc23)CC1	1.0	-8	4	0	-5.1	4	4.3	-6.2
O=C(NC1CCCCCC1)c1cc(S(=O)(=O)N2CCOCC2)ccc1N1CCCCC1	0.2	x	23	2	2.2	2	0.8	-1.9
Cc1nn(CCOc2ccccc2)c(=O)n1-c1ccccc1	-0.5	-1	-15	-26	-4.6	-1	1.1	-1.6
O=C(CN(c1ccc(F)cc1)S(=O)(=O)c1ccccc1)NCCSC1CCCCC1	0.4	18	22	22	1.8	1	0.2	5.1
CC(C)(C)c1cc(NC(=O)COC(=O)c2ccc3c(=O)n4c(nc3c2)CCC4)n(-c2ccccc2)n1	-0.3	-8	-8	-17	-5.6	-7	-2.6	-1.7
CC(=O)N1CCN(C(=S)Nc2ccc(Oc3ccccc3)cc2)CC1	0.8	x	-7	-3	12	-8	0.9	-9.7
CC(=O)Nc1cccc(Oc2ccc3c(c2)C(=O)NC3=O)c1	-0.6	-4	-10	-5	-8.0	14	1.7	0.0
N#CC1(C#N)C(c2ccccc2)OC23CCCCCC2C1(C#N)C(=N)O3 (stereo not given)	-0.1	-1	0	4	u	5	-227	-1.6
CC1=C(C(=O)N2CCCC(N3CCN(c4cccc(C(F)(F)F)c4)CC3)C2)OCCO1 (stereo not given)	0.1	-2	4	1	-2.1	20	3.4	1.0
CN(C)N=Nc1ccc2nc[nH]c2c1	-0.4	-2	9	37	-2.6	18	8.4	2.3
CCCN(CC(=O)Nc1ccccc1OC)C(=O)c1cccc(S(=O)(=O)NCc2ccccc2)c1	1.2	1	4	-7	x	-2	3.1	-6.5
COc1ccc(C2c3c4c(n(C)c3CCN2C)CCN(C)C4c2ccc(OC)cc2)cc1 (stereo not given)	0.6	11	-5	3	-0.5	2	1.4	-1.2
CCOC(=O)N1CCC(NC(=O)C2CCCN(S(=O)(=O)c3ccc4c(c3)oc(=O)n4C)C2)CC1 (stereo not given)	0.7	-37	-6	4	u	-2	-0.9	-1.8
CCCC(=O)NCCc1ccc(S(N)(=O)=O)cc1	0.3	-3	-22	14	1.5	4	1.4	-4.8
CN(c1ccccc1)c1nccc(=O)[nH]1	0.6	-12	-11	3	-1.9	-4	0.6	1.0
Nc1ccc2c(c1)nc(Cc1ccccc1)n2CCO	0.4	4	-2	-11	0.5	4	0.9	1.9
CC1=NN(C(=O)c2ccccc2-n2cccc2)C(O)(C(F)(F)F)C1 (stereo not given)	1.1	x	-5	6	-10	5	4.6	-2.0
CC(C)(C)OC(=O)N1CCC(Cc2cc(-c3ccc(Cl)cc3)no2)(C(=O)O)CC1	1.3	-1	-12	-4	5.1	-5	0.4	-2.9
Cc1ccc(NC(=O)CCC(=O)NNS(=O)(=O)c2ccccc2)c(C)c1	-0.1	-9	14	9	-4.3	-6	1.0	-2.3

The list continues:
SMILES	A1 inh	Beta cell apopt	T cruzi repl	Calb FLC	RanGTP-Impb inh	B2AR ag	UCH37 DUB inh	LANA-H2A inh
COc1ccc(CNCc2ccccc2C(F)(F)F)cc1	0.7	x	11	-3	-0.7	7	-0.8	4.4
C/C(=N\NC(=O)c1cc(-c2cccnc2)nc2ccccc12)c1ccccc1O	-0.8	86*	63*	-15	1.0	-7	x	7.2
CC1CCCCN1C(=O)C1CCN(S(=O)(=O)c2ccc(-n3cnnn3)cc2)CC1 (stereo not given)	0.1	8	2	-2	-0.6	-11	-0.8	0.3
O=C(CN(C(=O)c1cc2c(s1)CCC2)C1CCCC1)NCc1cccs1	0.1	0	-4	-6	-0.1	-8	2.5	-7.0
C#CCOCCOCCOCCNc1nc(N2CCN(C(=O)[C@H](CCC(=O)O)n3cc(C(N)CO)nn3)CC2)nc(N2CCN(C(=O)[C@H](CCC(=O)O)n3cc(C(N)[C@H](C)CC)nn3)CC2)n1 (stereo not given in full)	0.2	-2	-14	9	6.2	-9	3.4	5.5
CCOCN(C(=O)Cn1c(COC)nc2ccccc21)c1c(C)cccc1CC	-0.6	1	11	4	-4.9	2	6.4	1.8
COc1ccc2c(c1)[C@H]1[C@H](CO2)[C@H](c2ccccc2)[C@]2(C)C(=O)N(CC3CCCO3)CC(=O)N12 (stereo not given in full)	1.9	1	x	x	x	-4	4.6	6.2
O=C(NCc1ccco1)c1ccc(N2CCOCC2)c([N+](=O)[O-])c1	0.1	-5	1	19	-1.7	-6	9.8	-4.1
O=C(NCCc1ccccc1)C1CCC(CNc2nc(=S)[nH]c3ccccc23)CC1 (stereo not given)	0.4	6	11	-9	0.9	-11	1.5	-2.7
O=C(O)CCNS(=O)(=O)c1ccc2c(c1)Cc1ccccc1-2	0.3	1	-7	-1	-1.8	-3	2.8	-5.7

One compound at a time, from the list above:
C/C(=N\NC(=O)c1cc(-c2cccnc2)nc2ccccc12)c1ccccc1O is entered as A1 inh = -0.8; Beta cell apopt = 86*; T cruzi repl = 63*; Calb FLC = -15; RanGTP-Impb inh = 1.0; B2AR ag = -7; UCH37 DUB inh = x; LANA-H2A inh = 7.2
O=C(O)CCNS(=O)(=O)c1ccc2c(c1)Cc1ccccc1-2 is entered as A1 inh = 0.3; Beta cell apopt = 1; T cruzi repl = -7; Calb FLC = -1; RanGTP-Impb inh = -1.8; B2AR ag = -3; UCH37 DUB inh = 2.8; LANA-H2A inh = -5.7

Screening data: PubChem, several laboratories
